GLA inh pH 4.5 = blocks human alpha-galactosidase A at pH 4.5 | P06280 | purified enzyme, 4-MU-alpha-Gal fluorescence, pH 4.5 | activity change, negative = inhibition, % at 105 µM | 230,000 tested, under 10 active | AID 1467; inconclusive = small, poorly fitted or top-dose-only inhibition, or a rising curve; inactive = flat fitted curve, though single readings scatter; no compound was filed as active;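 note: 0% = full activity with enzyme and -100% = basal without enzyme; dose as in the result columns while the protocol names 77 µM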
miR-21 FLuc = raises the signal of a miR-21 reporter; HeLa miR-21 FLuc reporter, luciferase, 48 h; Potency, µM (titrated, usually from 38.3 µM), for the others: top-dose reporter change, positive = more light; 340,000 tested, under 10 active; active = well fitted rising curve with a large enough effect; inconclusive = small, poorly fitted or top-dose-only effect; inactive = no such curve, though single readings can be large or run the other way;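 note: % of control where 0% means no effect; miR-21 action dims this reporter so a rising signal means less miR-21 action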
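Using DMEM plus 10% FBS, HeLa miR-21-FLuc cells are incubated with test compounds (final up to about 40uM) for 48 hours; firefly luciferase signal is then imaged following reagent-mediated lysis.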
Rango complex inh = prevents formation of the Rango-importin beta complex. Q14974. Rango CFP/YFP FRET sensor + importin beta, 45 min. Potency, µM (top dose mostly 92.2 µM), inactives show top-dose inhibition of complex formation. actives 0.031% (n = 340,000). AID 540263; active = rising FRET ratio curve, often small or poorly fitted; inconclusive = mostly compound fluorescence or quenching in the first reads; inactive = flat curves in all reads;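 note: potency is the fitted concentration of half-maximal effect; 0% = DMSO wells and 100% = buffer wells lacking importin beta; nearly all actives have a fitted effect of over 15% in size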
Target sequence (Q14974 whole entry, looked up): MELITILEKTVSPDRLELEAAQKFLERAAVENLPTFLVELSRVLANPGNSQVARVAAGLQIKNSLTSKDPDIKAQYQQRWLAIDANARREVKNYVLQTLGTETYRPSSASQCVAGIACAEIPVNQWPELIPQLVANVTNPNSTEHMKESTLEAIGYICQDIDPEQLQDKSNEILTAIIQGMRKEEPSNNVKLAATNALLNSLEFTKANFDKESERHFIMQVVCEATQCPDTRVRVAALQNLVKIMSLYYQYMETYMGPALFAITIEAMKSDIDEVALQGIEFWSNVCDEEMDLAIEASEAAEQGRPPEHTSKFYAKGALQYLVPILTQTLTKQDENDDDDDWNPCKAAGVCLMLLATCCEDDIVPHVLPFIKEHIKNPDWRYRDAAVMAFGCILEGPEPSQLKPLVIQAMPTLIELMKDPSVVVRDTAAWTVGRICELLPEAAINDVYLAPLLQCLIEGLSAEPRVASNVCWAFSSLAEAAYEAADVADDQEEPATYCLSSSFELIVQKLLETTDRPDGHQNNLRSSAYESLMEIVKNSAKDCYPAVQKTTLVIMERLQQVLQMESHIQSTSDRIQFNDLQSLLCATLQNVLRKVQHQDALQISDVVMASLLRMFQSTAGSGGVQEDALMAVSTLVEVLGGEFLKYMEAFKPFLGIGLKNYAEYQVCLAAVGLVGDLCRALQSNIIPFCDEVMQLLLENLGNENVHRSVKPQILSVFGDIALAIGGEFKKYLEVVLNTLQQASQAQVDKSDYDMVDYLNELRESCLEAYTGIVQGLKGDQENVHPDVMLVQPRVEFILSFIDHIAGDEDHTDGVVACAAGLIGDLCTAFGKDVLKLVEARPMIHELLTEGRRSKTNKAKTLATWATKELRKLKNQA
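FRET biosensor (snurportin 1 IBB flanked by EYFP and cerulean), 50 nM, with compound 5 min, then 0.125 microM importin beta in PBS, 1 mM DTT, 0.02% Tween-20, 0.1% BSA. CFP/YFP ratio read after 45 min at room temperature; pre-read flags interference.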
Rango release inh = inhibitors of RanGTP-induced Rango-importin beta complex dissociation; O95149+P62826; Biochemical FRET Rango-importin beta, RanGTP-induced dissociation; Potency, µM (top dose mostly 46.1 µM), for the others: at the top dose activity change, negative = inhibition; actives 0.071% (n = 340,000); AID 540253; active means falling FRET ratio curve, often poorly fitted, with flat reads before Ran was added; inconclusive means other falling curves, or compound fluorescence or quenching; inactive means flat or rising ratio curve;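 note: potency is the fitted concentration of half-maximal effect; % of control where 0% means no effect; nearly all actives have a fitted effect of over 45% in size; -100% = wells without RanGTP and RCC1; the record marks most hits as doubtful in a second field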
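Rango FRET biosensor (snurportin-1 IBB flanked by N-terminal EYFP and C-terminal CFP10) at 0.1 uM, with 0.25 uM importin beta in PBS, 1mM DTT, 0.02% Tween-20, 0.1% BSA. 0.6 uM Ran, 2mM GTP and 0.2 uM RCC1 were then added for 45 min at room temperature. Inhibition read as loss of FRET rise.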
* = called active by the depositor; ? = inconclusive; nt = not tested or not shown; & = joins results of further samples.

miR-21 FLuc	Rango complex inh	GLA inh pH 4.5	Rango release inh	compound
-7%	-0.1%	4	1%	Cc1cc([N+](=O)[O-])cc2ncccc12
-7%	-6.3%	6	9%	CCOc1ccc(-n2c(SCC(=O)Nc3cc(C)on3)nnc2-c2c[nH]c3ccccc23)cc1
0%	?	11	?	CN1CCN(C=Nc2nc3ccccc3nc2N2CCCC2)CC1
-22%	1.9%	9	22%	Cc1ccc(C(=O)OCC(=O)c2c[nH]c3ccccc23)cc1NC(=O)c1ccco1
nt	-1.7%	nt	-21%	CCN1Cc2ccccc2-c2ccccc2S1(=O)=O
1%	0.1%	7	0%	COC(=O)CC1C(=O)NCCN1C(=S)Nc1ccc(F)cc1 (centres undefined)
1%	-0.3%	-6	-4%	O=C(CSc1nnnn1C1CCCC1)NCc1ccc2c(c1)OCO2
-1%	-3.3%	-3	17%	CCOC(=O)C1=NN(C(=O)Nc2ccc(OC)cc2)C2C(=O)N(c3cccc(C(F)(F)F)c3)C(=O)C12 (centres undefined)
-2%	0.6%	5	7%	Cc1cc(NC(=O)Cn2cc([N+](=O)[O-])cn2)no1
-3%	-0.6%	-5	-7%	CCSc1nc2cc(C(=O)OC)ccc2c(=O)n1CC
-3%	-0.1%	-1	7%	COc1ccccc1Oc1ccc2c(c1)C(=O)N(c1ccc(O)cc1)C2=O
-28%	4.0%	9	10%	O=C(Nc1ccccc1)Nc1ccccc1Br
-6%	-0.2%	9	2%	CC(C)c1nc(C#N)c(NCCCn2ccnc2)o1
nt	-8.6%	nt	1%	CCn1cnc2c(NCCc3cccnc3)nc(C#N)nc21
-1%	2.5%	-2	0%	C=CCc1cc(/C=N/NC(=O)CSc2nnc(CCCc3ccc(OC)cc3)o2)cc(OC)c1O
nt	1.5%	nt	20%	CCCC(=O)NC(Nc1ccc(S(=O)(=O)Nc2cc(C)on2)cc1)(C(F)(F)F)C(F)(F)F
-8%	-1.9%	-4	-2%	COCC(=O)Nc1sc2c(c1C(=O)OC)C(C(=O)OC)CC2 (centres undefined)
-1%	0.3%	1	1%	Cc1ccc(-n2c(CNc3ccc(F)cc3)nnc2SCC(N)=O)cc1
5%	-1.9%	-5	2%	Cc1ccccc1NS(=O)(=O)c1ccc(OCCNS(C)(=O)=O)cc1
-1%	0.3%	-13	-7%	O=C(OCC(=O)N1CCCCCC1)c1n[nH]c(=O)c2ccccc12

Pulled by structure from the entries so far:
miR-21 FLuc	Rango complex inh	GLA inh pH 4.5	Rango release inh	compound
0%	?	11	?	CN1CCN(C=Nc2nc3ccccc3nc2N2CCCC2)CC1
-6%	-0.2%	9	2%	CC(C)c1nc(C#N)c(NCCCn2ccnc2)o1

(cont.)
miR-21 FLuc	Rango complex inh	GLA inh pH 4.5	Rango release inh	compound
-9%	0.2%	4	7%	CN1CCN(c2ccc(C(CC(N)=O)NC(=O)Cc3ccc(Br)cc3)cc2[N+](=O)[O-])CC1 (centres undefined)
-7%	1.2%	nt	1%	COC(=O)c1ccc(Nc2ncnc3c2cnn3-c2cccc(C)c2)cc1
-9%	0.0%	10	4%	CCOc1ccc2nc(NC(=O)Cn3cnc4c3c(=O)n(C)c(=O)n4C)sc2c1
nt	-0.2%	nt	12%	CC1CCCC(NC(=O)COC(=O)c2cccnc2Cl)C1C (centres undefined)
nt	0.4%	nt	6%	CC(C)c1ccc(S(=O)(=O)N2CCN(C(=O)c3cccc(S(=O)(=O)N4CCOCC4)c3)CC2)cc1
0%	1.7%	1	-5%	CCN(c1ccccc1)S(=O)(=O)c1ccc(Cl)c(NC(=O)COC(=O)c2ccc[nH]c2=O)c1
-16%	1.3%	-2	-11%	CCOc1cc(S(=O)(=O)N(CC)CC)ccc1Cl
-4%	-4.6%	0	4%	Cc1cc(C)nc(SC2c3cccc4cccc(c34)C2NS(=O)(=O)c2ccccc2)n1 (centres undefined)
0%	0.2%	1	?	COCCNC(=O)Cn1nc(C(F)(F)F)cc1C
nt	-3.3%	nt	-2%	O=C(CNS(=O)(=O)c1ccc(Br)cc1Cl)OCC(=O)c1ccc[nH]1
0%	-2.2%	1	-1%	Cc1nnc(SCC(=O)Nc2ccc(Cl)cn2)n1Cc1ccccc1
-7%	1.5%	-12	-8%	CC(/C=C/c1ccco1)=N\NC(=O)CNc1ccc2ccccc2c1
4%	-0.1%	7	1%	Cc1cccc(N(CC(=O)N2CCCC2)S(=O)(=O)c2ccccc2)c1C
-3%	-1.7%	3	-8%	CCn1c(SCC(=O)c2ccc(CNC(C)=O)o2)nnc1-c1cccs1
0%	-1.2%	nt	9%	CCc1cc2c(C)ccc(C)c2nc1SCC(=O)Nc1cc(C)on1
0%	0.2%	3	-12%	CC(=O)Nc1ccc(S(=O)(=O)NC2(C(F)(F)F)C(=O)NC(C)=C2C#N)cc1 (centres undefined)
0%	-1.0%	0	3%	CNC(=O)C1=C(C)Nc2nc3ccccc3n2C1c1ccc(F)cc1 (centres undefined)
0%	1.4%	0	7%	COc1cc(C2C3C(=O)N(c4ccccc4)C(=O)C3ON2c2ccccc2)cc(OC)c1OC (centres undefined)
-3%	0.2%	7	-5%	CC(=O)Nc1c(C#N)c(C(C)(C)C)cn1C
-70%	0.2%	-1	-7%	COc1ccc(C(=O)CCNc2cccc(Cl)c2)cc1

By substructure, those above containing two or more sulfur atoms
miR-21 FLuc	Rango complex inh	GLA inh pH 4.5	Rango release inh	compound
5%	-1.9%	-5	2%	Cc1ccccc1NS(=O)(=O)c1ccc(OCCNS(C)(=O)=O)cc1
nt	0.4%	nt	6%	CC(C)c1ccc(S(=O)(=O)N2CCN(C(=O)c3cccc(S(=O)(=O)N4CCOCC4)c3)CC2)cc1
-4%	-4.6%	0	4%	Cc1cc(C)nc(SC2c3cccc4cccc(c34)C2NS(=O)(=O)c2ccccc2)n1 (centres undefined)
-3%	-1.7%	3	-8%	CCn1c(SCC(=O)c2ccc(CNC(C)=O)o2)nnc1-c1cccs1

The list continues:
miR-21 FLuc	Rango complex inh	GLA inh pH 4.5	Rango release inh	compound
-1%	-4.9%	nt	-11%	O=C(CS(=O)(=O)c1ccccc1)Nc1nnc(Cc2ccccc2)s1
-1%	0.7%	nt	-17%	COCCNC(=S)N(CCc1c(C)[nH]c2ccc(OC)cc12)Cc1cccnc1
0%	-1.0%	8	-7%	CC(C)CC(=O)NC(=S)Nc1ccc(S(=O)(=O)N2CCCC2)cc1
-6%	2.9%	nt	-11%	COC(=O)c1cc(-c2ccc(F)cc2)n(-c2ccccc2)n1
-4%	0.5%	-7	6%	O=S(=O)(Nc1ccc(-c2nnc(SCc3ccc(Cl)cc3)o2)cc1)c1ccccc1
-15%	-1.1%	nt	-5%	CN(C)c1ccc(/C=N/NC(=O)CN2CCCCC2)cc1Br
12%	-1.3%	14	1%	CCOC(=O)c1sc2nc(NC(=O)C(C)(C)C)sc2c1C
0%	-0.7%	-5	-8%	CCN1CNC(=S)N(Cc2ccccc2)C1
-17%	0.8%	-2	3%	Cc1cc(NC(=O)c2noc3c2CCCCC3)nn1Cc1ccc(Cl)cc1
-1%	4.0%	-1	11%	O=C(CCc1nnc(C2CCCCC2)o1)NCc1cccc(-n2cccn2)c1
-10%	-3.6%	-2	-13%	CCOc1ccc(Oc2nc(NCC(C)C)nc(OC)n2)nn1
-4%	-3.0%	-3	-25%	Cc1ccc(C(O)c2ccncc2)cc1 (centres undefined)
-3%	-1.4%	0	15%	CC(NC(=O)c1ccccc1)c1nc2ccccc2n1Cc1ccc(C#N)cc1 (centres undefined)
0%	-2.4%	nt	2%	O=C1COc2ccc(S(=O)(=O)N3CCN(c4cccc(Cl)c4)CC3)cc2N1
-2%	-0.3%	2	-15%	CCC(C)(C(=O)NC1CCCCC1)N(CC1CCCO1)C(=O)c1ccccn1 (centres undefined)
-4%	1.0%	6	-1%	COc1ccc(OC)c(NC(=O)C(CC(=O)O)NCc2ccco2)c1 (centres undefined)
-3%	-4.0%	nt	5%	Cc1cc(COC(=O)C2N3C(=O)[C@@H](NC(=O)COc4ccccc4)[C@H]3SC2(C)C)on1 (some centres undefined)
-31%	?	10	-18%	O=c1[nH]c(/C=C/c2cccc3ccccc23)nc2ccccc12
-2%	?	4	-24%	CCNc1ccc(S(=O)(=O)N(C)C)cc1NCC(=O)Nc1ccccc1Br
1%	-4.7%	5	-6%	COc1ccccc1CN1CCNC(=O)C1CC(=O)NCc1csc(C)n1 (centres undefined)
-8%	-1.9%	8	1%	CCOc1ccc(Br)cc1S(=O)(=O)NCCN(C)C
-13%	-2.3%	nt	11%	Oc1ccc(N2CCN(Cc3cc4c(cc3Br)OCCO4)CC2)cc1
-6%	-2.7%	5	7%	CCOC(=O)CNC(=O)CSc1nnnn1-c1ccc(C)c(C)c1
nt	-4.3%	nt	-3%	Cc1ccc(C(=O)NCC(=O)OCCOc2ccccc2Cl)cc1
-1%	?	5	?	CCOC(=O)Nc1c(Cl)n(C)c(=O)n(C)c1=O
nt	-1.1%	nt	16%	Cc1cc(Br)ccc1NC(=O)CN(C)C(=O)C1=COCCO1
1%	2.5%	3	12%	Cc1cc(NC(=O)CCCn2cnc([N+](=O)[O-])n2)no1
-1%&1%	-1.6%	-4	-12%	Cc1ccc(NC(=O)CSc2nc(=O)cc(N)n2CCc2ccccc2)cc1
-11%	-2.6%	3	-4%	COc1cc(C)c(Cl)cc1S(=O)(=O)n1cnc(C)c1
23%	0.2%	-9	6%	COc1ccc(NC(=O)Nc2ccc(Cc3ccncc3)cc2)c(OC)c1
nt	-4.7%	nt	20%	Cc1sc(NC(=O)C2=COCCO2)c(C#N)c1C
4%	-0.3%	nt	26%	COc1cc(/C=C(\NC(C)=O)C(=O)N2CCCCC2)ccc1OC(C)=O
nt	-1.3%	nt	7%	Cc1ccc(S(=O)(=O)NCc2ccccc2)cc1C(=O)NCCc1ccc(S(N)(=O)=O)cc1
nt	-1.7%	nt	0%	O=C(OCC(=O)N1N=C(c2ccc(Cl)cc2)CC1c1ccco1)c1cncc(Br)c1 (centres undefined)
-2%	-0.8%	0	43%	CC(NC(=O)COc1ccc(/C=N/NC(=O)C(=O)Nc2ccccc2Br)cc1)c1ccccc1 (centres undefined)
-7%	-0.4%	-15	-19%	O=c1c2cccnc2n(-c2ccccc2)n1Cc1ccc(Cl)cc1
-3%	-0.6%	6	3%	COc1cccc(/C=N/NC(=O)C(C)Sc2ccccc2)c1 (centres undefined)
-6%	4.4%	nt	2%	Cc1ccc(Cl)cc1-n1c(SCC(=O)NCCC2=CCCCC2)nc2n[nH]c(C)c2c1=N
-10%	-4.7%	4	13%	O=C(COC(=O)c1cc2c(s1)CCCC2)NCc1ccccc1Cl
-53%	-4.6%	nt	19%	Cc1cc(C)c(-c2nc3ccccc3s2)[nH]1
-10%	-1.4%	-6	-10%	Cc1ccc2cc(CN(Cc3ccc4c(c3)OCO4)Cc3nnnn3Cc3ccco3)c(=O)[nH]c2c1
nt	1.9%	nt	15%	O=C(COC(=O)c1c[nH]c(=O)[nH]c1=O)Nc1cccc([N+](=O)[O-])c1
-21%	-2.9%	0	-9%	Cn1nnnc1SCC(=O)Nc1ccc(Br)cc1Cl
-20%	-2.2%	nt	-11%	CCc1ccc(NC(=O)NCc2cccnc2)cc1
nt	-0.6%	nt	0%	COC(=O)[C@]1(C)N[C@H](CN(C)C(=O)Nc2ccc(C)cc2)[C@@H]2C(=O)N(C)C(=O)[C@@H]21

4 entries from above, as tab-separated lines:
Compound	miR-21 FLuc	Rango complex inh	GLA inh pH 4.5	Rango release inh
Cc1ccc2cc(CN(Cc3ccc4c(c3)OCO4)Cc3nnnn3Cc3ccco3)c(=O)[nH]c2c1	-10%	-1.4%	-6	-10%
O=C(COC(=O)c1c[nH]c(=O)[nH]c1=O)Nc1cccc([N+](=O)[O-])c1	nt	1.9%	nt	15%
Cn1nnnc1SCC(=O)Nc1ccc(Br)cc1Cl	-21%	-2.9%	0	-9%
CCc1ccc(NC(=O)NCc2cccnc2)cc1	-20%	-2.2%	nt	-11%

This is a subset (hit frequency here may not be typical).
